MT1-MMP act inh – blocks activation of human MT1-MMP | P50281 | GFP/RFP ratio change, % at 20 µM | 360,000 tested, 0.061% active | HT1080 RFP-PRO-GFP cells, GFP/RFP ratio fluorescence, overnight; percent of plate control window, DMSO zero;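 active = GFP/RFP ratio change of at least 30% with cell ATP level not reduced by more than half and red fluorescence within 50% of control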; note: strong numbers were not always called active
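Material: RFP-PRO-GFP reporter HT1080 cells. Dosing: single-point 20 µM compound, 1% DMSO. Controls: DMSO and RFP-L50D-GFP cell wells. Timing: cells overnight before dosing, compound overnight, 37 °C, 5% CO2. Measure: GFP/RFP fluorescence ratio.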
PABP FP inh – blocks human PABP binding to poly(A) RNA | fluorescence polarization | inhibition, % at 35 µM | 290,000 tested, 1% active | AID 2014;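 active = 50% or more with normal probe brightness, or confirmed in later tests; about a fifth of its hits are not listed in these tables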;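 note: calls also rest on retests at 20 µM and on dose response follow-up; controls were probe without protein and protein plus probe with vehicle; some compounds called inactive have numbers as strong as hits; many hits fall short of the cut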
Target sequence (P11940 whole entry, looked up): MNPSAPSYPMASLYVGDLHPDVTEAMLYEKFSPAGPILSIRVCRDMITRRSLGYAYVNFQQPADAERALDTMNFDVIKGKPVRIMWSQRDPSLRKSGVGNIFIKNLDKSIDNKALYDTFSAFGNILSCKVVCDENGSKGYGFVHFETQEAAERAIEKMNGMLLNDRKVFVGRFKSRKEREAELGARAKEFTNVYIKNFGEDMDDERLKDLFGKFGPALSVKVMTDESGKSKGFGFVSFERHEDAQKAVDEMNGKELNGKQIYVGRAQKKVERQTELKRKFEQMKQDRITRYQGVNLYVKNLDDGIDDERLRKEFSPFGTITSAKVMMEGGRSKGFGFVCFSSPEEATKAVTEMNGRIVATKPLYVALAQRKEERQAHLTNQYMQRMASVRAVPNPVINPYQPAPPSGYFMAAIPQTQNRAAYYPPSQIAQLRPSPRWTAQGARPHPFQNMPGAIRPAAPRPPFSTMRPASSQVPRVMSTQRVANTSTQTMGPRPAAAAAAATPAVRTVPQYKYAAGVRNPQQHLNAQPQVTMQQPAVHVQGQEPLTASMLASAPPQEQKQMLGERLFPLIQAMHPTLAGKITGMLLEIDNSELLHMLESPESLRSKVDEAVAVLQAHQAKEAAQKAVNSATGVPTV
CSC inhib – blocks cancer stem cells; cancer stem cell-like cells viability, luminescence; inhibition, % at 7.5 µM; 300,000 tested, 1.1% active; AID 2717;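 active = mean at 75% or more and at least half the replicates too; tested in HMLE shEcad cells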;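 note: 0% = median of negative and 100% = median of positive control wells; the first replicate is given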
eIF4H inh – inhibitors of RNA binding by human eIF4H; Q15056; eIF4H fluorescence polarization binding assay; inhibition, % at 35 µM; 290,000 tested, 0.94% active;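 active = 50% or more with normal probe brightness, or confirmed in later tests; about a fifth of its hits are not listed in these tables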;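 note: calls also rest on retests at 20 µM and on dose response follow-up; 0% = protein and probe with vehicle and 100% = probe without protein; strong numbers were not always called active; many hits fall short of the cut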
Rce1 inh – blocks yeast Ras-converting enzyme; yeast membranes, quenched prenylated peptide cleavage fluorescence; 290,000 tested, 0.27% active; calls only; Q03530;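 active = fall in fluorescence gain of 50% or more versus controls, with final raw signal at or below 3038400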;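 note: plate controls were neutral control wells for no effect and wells lacking membranes for full effect; tested at 10 µM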
HIV Env fusion – blocks HIV Env-driven cell-cell fusion | HeLa-JRFL Env/CEM21 cell fusion, luciferase | inhibition, % at 12.3 µM | 360,000 tested, 1.1% active | AID 651610;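 active = mean replicate inhibition score of at least 50 and every replicate individually at or above 50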;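 note: 0% = plate neutral controls and 100% = maraviroc near 300 nM; one replicate is shown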
Yeast UUG start – yeast start codon fidelity modulation; S. cerevisiae UUG-firefly luciferase reporter, luminescence/redox ratio; activity score, % at 18.7 µM; 350,000 tested, 0.13% active; AID 602363;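 active = replicate mean at a twofold rise or more, about +100% in these data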;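 note: firefly luciferase made from a UUG start codon reports start codon fidelity; reporter light over untreated wells divided by growth signal over untreated wells; some hits fall short of that in this replicate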
eIF4H inh retest – second read-out of eIF4H inh, no call of its own (marks repeat the call); inhibition, %; compound at 20 µM; confirmation average;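 mean of two retest wells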
PABP FP inh retest – recorded beside PABP FP inh, whose call it bears; inhibition, %; compound at 20 µM; confirmation repeats;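 mean of two retest wells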
MT1-MMP act inh RFP – second read-out of MT1-MMP act inh, no call of its own (marks repeat the call); RFP signal change, %; measured here: RFP expression control read;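 0 = vehicle wells; hits needed this value within 50% of zero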
An asterisk follows results filed as active; i = inactive; . = no result given.

SMILES	MT1-MMP act inh	MT1-MMP act inh RFP	PABP FP inh	CSC inhib	eIF4H inh	Rce1 inh	HIV Env fusion	Yeast UUG start	others
COc1ccc(C2C=C(Nc3ccccc3)C(=O)N2c2ccccc2)cc1OC (stereo not given)	1	6	2	6	-10	i	-18	.
CCOc1cccc2cc(C(=O)N3CCN(C/C=C/c4ccccc4)CC3)c(=O)oc12	4	-2	-4	-15	-4	i	-22	.
O=C(COc1ccc(S(=O)(=O)N2CCOCC2)cc1)N1CCCCCC1	-2	-5	-15	-5	-3	i	1	.
C=C(C(=O)O)C1CCC2(C)CCCC(C)(O)C2C1 (stereo not given)	2	3	16	-10	8	i	.	0
COCCCNC(=O)c1ccc(OC)c(OC2CCN(C(C)C)CC2)c1	-9	-3	8	-2	2	i	-5	-1
COc1ccc(C2SCC(=O)N2c2ccc(F)cc2)cc1 (stereo not given)	1	2	-10	-15	-4	i	8	-6
COc1ccc(CC(=O)NCc2csc(-c3cccs3)n2)cc1OC	7	-2	-11	-6	1	i	-1	.
Cc1[nH]c2ccccc2c1/C=C(\C#N)C(=O)NC1CC1	4	1	0	3	-7	i	.	-10
COc1ccc(/C=C/c2nnc(NC(=O)C(C)(C)C)s2)cc1	-1	-1	-5	9	-8	i	-20	.
CNC(=S)N/N=C(\C)c1ccc(-n2ccnc2)cc1	-6	-6	14	3	2	i	-72	-21
[O-]/C(=C(\C(=S)Nc1cccc2ccccc12)[n+]1ccccc1)c1cccs1	-3	2	12	11	-4	i	5	-16
O=C(Cn1c(=O)oc2cc(S(=O)(=O)N3CCCC3)ccc21)NCc1ccc(F)cc1	1	5	0	-2	-4	i	13	-22
Cc1cccc(Cn2ccc(NC(=O)c3cccnc3)n2)c1	0	1	-1	-1	-2	.	9	-33
O=C(CC[C@H]1O[C@@H](n2ccc(=O)[nH]c2=O)[C@H](O)[C@@H]1O)N[C@@H](Cc1ccccc1)C(=O)NCC1CCCCC1	5	5	.	.	.	.	-6	2
Cc1nc(-c2ccccc2)sc1C1(C)CC(c2c(Cl)cccc2Cl)=NO1 (stereo not given)	1	-3	2	63	-1	i	-86	-17
Brc1ccc2nc(-c3ccco3)c(Cc3ccsc3)n2c1	-5	-1	.	.	.	.	26	-8
O=C(Nc1ccc(S(=O)(=O)N2CCCC2)cc1)c1cnccn1	1	-4	-2	-9	-3	i	-11	-6
Clc1ncnc2scc(-c3ccccc3)c12	-1	-3	2	-7	-3	i	-64	-9
CCOC(=O)C(Cc1ccccc1)C(=O)NCc1cccnc1 (stereo not given)	-1	1	-7	-7	-6	i	-4	0
O=C(COc1cccnc1[N+](=O)[O-])Nc1cccc(Br)c1	2	-1	.	-5	.	.	-9	-8
C[N+](C)(C)CCOC(N)=O	2	6	.	-5	.	.	-16	-9
CCOc1ccc(-c2nc(-c3cccs3)c(CC(=O)O)s2)cc1OC	2	7	17	-7	3	i	-16	-32
CC(=O)c1cn(CC(=O)Nc2ccc(C)c(C)c2)c2ccccc12	3	-8	-2	-4	5	i	-3	8
CCOC(=O)c1nnn(-c2nonc2N)c1-c1ccc(C)cc1	-2	-2	2	-6	-4	i	.	-6
CCN(Cc1cc2cc(OC)ccc2[nH]c1=O)C(=O)Cc1ccc(OC)cc1	0	-4	9	-20	-2	i	.	-11
CCOC(=O)NC(=O)/C(C#N)=N\Nc1cccc(OC)c1	0	3	-6	-4	1	i	5	.
Cc1cccc(NC(=O)C2CC3CCC2C3)c1C (stereo not given)	2	2	.	-9	.	i	5	-3
CCC(C(=O)Nc1ccc(C)cc1)c1ccccc1 (stereo not given)	6	5	-11	7	-2	i	23	-1
CCN1C(c2ccccc2)=C(c2ccccc2)S/C1=C/C=C1\SC(=S)N(C)C1=O	43	94	18	.	9	.	37	-2
CN(C)Cc1c(O)ccc2c(=O)c(-c3ccccc3)c(C(F)(F)F)oc12	-1	-1	-5	-4	-2	i	-13	-15
CN(CC(=O)Nc1cccc(F)c1)C(=O)c1ccc(COc2ccccc2)cc1	-3	-10	.	12	.	i	-2	-8
O=C(CCN1C(=O)C2C3C=CC(C3)C2C1=O)N1CCN(c2ccccc2F)CC1 (stereo not given)	-1	9	-6	-10	-16	i	.	5
CN(C)c1ccc(C(=O)N2CCCC2)cc1	-2	-1	-9	.	0	i	-9	.
Cc1ccc(CNC(=O)c2nnn(CC(=O)Nc3cc(C)cc(C)c3)c2N)cc1	0	1	12	-6	37	i	3	-14
CCCOC(=O)c1ccc(NS(=O)(=O)c2cccs2)cc1	1	-1	-12	2	-5	i	-6	-13
O=C(CSc1nnc(-c2ccccn2)n1-c1ccccc1)Nc1ccc2c(c1)OCO2	4	0	-4	-8	-3	i	.	-2
CCOc1ccc2nc(Cl)c(C3CC(c4ccco4)=NN3S(C)(=O)=O)cc2c1 (stereo not given)	6	6	4	1	5	i	5	-8
CC[C@@H]1C/C=C\Cc2ccccc2[C@H](C(=O)C[C@@H](O)CC(C)=O)OC1=O	-8	-7	.	.	.	.	17	-15
O=C(CC1SC(N2CCCCC2)=NC1=O)Nc1cccc(C(=O)O)c1 (stereo not given)	5	-3	-4	-4	4	i	.	-22
O=C(CSC1=NCCS1)Nc1cccc2ccccc12	-1	-1	3	-8	-11	i	.	4
CCOC(=O)C(C#N)C(Cc1ccccc1)c1ccco1 (stereo not given)	-1	6	0	-6	3	i	.	-4
O=C1/C(=C\c2ccncc2)CCc2ccccc21	3	-5	.	-9	.	i	14	-29
CC(C)c1ccc(/C=C2\SC(=S)N(CCC(=O)N3CCCCC3CCO)C2=O)cc1 (stereo not given)	0	-6	6	29	-14	i	56*	-35
COc1cc(-c2noc(CCC(=O)Nc3cccnc3)n2)cc(OC)c1OC	7	-4	1	-16	4	i	.	-8
COC(CNC(=O)c1cc(S(=O)(=O)N2CCc3ccccc32)ccc1F)OC	6	1	2	-13	-10	i	-3	-20
O=C(C1CCCO1)N1CCN(C(=S)Nc2ccc(F)cc2)CC1 (stereo not given)	-4	-2	13	0	-12	i	-6	.
O=C(CCc1ccccc1)NC1CCSC1=O (stereo not given)	2	3	-3	-10	5	i	-53	2
CC(C)CSc1nc2ccccc2c(=O)[nH]1	-1	7	-5	.	-2	i	.	.
Cn1cnnc1SCC(=O)NC1CCCCCC1	0	3	-1	-4	-5	i	-1	-14
COc1cccc(OC)c1OCC(O)CN1CCN(c2ccccc2F)CC1 (stereo not given)	-7	0	-1	3	-9	i	5	-3
Cc1ccc2c(c1)C1CN(C)CCC1N2C(=O)COc1ccc(N(C)C(=O)C(C)(C)C)cc1 (stereo not given)	2	-1	-10	-1	-5	i	-17	.
CS/C(=N\S(=O)(=O)c1ccc(Cl)cc1)c1ccccc1	2	3	0	1	-17	i	.	-3
O=C(Nc1ccccc1Cl)c1ccccc1Cc1ccccc1	-2	2	7	11	2	i	25	.
CC(=O)OCC(=O)Nc1ccc([N+](=O)[O-])cc1Cl	3	4	7	-14	-8	i	-8	.
NC(=O)NOCc1ccc(Cl)cc1Cl	1	5	1	9	2	i	16	.
CCCCCCN(C(=O)CCCCCN1C(=O)NC(c2ccc(-c3ccccc3)cc2)C(C(=O)OCc2ccccc2)=C1C)C(C(=O)NCCCC)C1CCCCC1 (stereo not given)	.	.	2	.	-9	i	23	.
CCN(CC)S(=O)(=O)c1ccc(Cl)c(OC)c1	-5	3	0	-17	-8	i	-4	-17
COc1ccc(CSc2nnc(C)n2N)cc1[N+](=O)[O-]	3	9	3	-5	11	i	8	.
CC(=O)c1ccc(OCC(=O)NC2CCCCCC2)cc1	2	2	.	-13	.	.	.	-3
COC(=O)c1cc(NS(=O)(=O)c2ccc3c(c2)c(=O)n(C)c(=O)n3C)cc(C(=O)OC)c1	-2	0	4	-10	-2	i	3	-24

Brought forward from above: 2 compounds, followed by the next part.
SMILES	MT1-MMP act inh	MT1-MMP act inh RFP	PABP FP inh	CSC inhib	eIF4H inh	Rce1 inh	HIV Env fusion	Yeast UUG start	others
CC(=O)c1ccc(OCC(=O)NC2CCCCCC2)cc1	2	2	.	-13	.	.	.	-3
COC(=O)c1cc(NS(=O)(=O)c2ccc3c(c2)c(=O)n(C)c(=O)n3C)cc(C(=O)OC)c1	-2	0	4	-10	-2	i	3	-24
CCN(C(=O)COC(=O)c1ccccc1Nc1ccccc1)c1c(N)n(Cc2ccccc2)c(=O)[nH]c1=O	-29	-21	.	.	.	.	-30	-8
CCCCCC1NC(=O)NC1CCCCCC(=O)O (stereo not given)	4	10	0	-1	-2	i	-35	18
c1coc(CN(Cc2ccco2)c2ncnc3c2oc2ccccc23)c1	-4	-18	13	34	10	i	.	-8
COc1ccccc1N1CCN(C(=O)c2n[nH]c3ccccc23)CC1	-2	-6	-9	4	-5	i	17	-1
Cn1cc(CN2CCCC(C(=O)c3cc(F)ccc3F)C2)c2ccccc21 (stereo not given)	0	-1	4	0	1	i	12	.
CN(C(=O)COC(=O)c1ccc([N+](=O)[O-])cc1Cl)C1CCCCC1	-2	-2	4	-2	-9	i	8	13
CCOc1ccccc1N(CC(=O)Nc1ccccc1C(=O)NCc1ccco1)S(C)(=O)=O	3	4	2	-2	0	i	.	8
Cc1ccc(OC(C)C(=O)OCC(=O)Nc2sccc2C(N)=O)cc1 (stereo not given)	0	-2	.	-16	.	.	3	-23
CCOCCCN(C(=O)Cn1nnc(-c2ccc(OC)c(OC)c2)n1)C(CC)C(=O)NC1CCCC1 (stereo not given)	-3	5	52	2	-12*	i	47	.	eIF4H inh retest=91*;PABP FP inh retest=43
CCOc1ccc(CCNC(=O)C(O)c2ccccc2)cc1 (stereo not given)	-2	0	-8	-7	-10	i	.	-6
C=CC(C)N1C(=O)S/C(=C\c2ccc(N3CCOCC3)cc2C)C1=O (stereo not given)	-36	-7	-3	25	-13	i	-17	.
Cc1cc(NC(=O)CSc2nnc(-c3ccco3)n2Cc2ccco2)no1	-1	0	2	3	-7	i	.	.
CC(C)(CO)NC(=O)C12CC3CC(CC(Br)(C3)C1)C2	2	1	-11	-11	6	i	0	.
CC1=C(C(=O)N2CCCCCC2)CC(CC(=O)NCCc2ccccn2)C(=O)N1Cc1ccccc1 (stereo not given)	10	1	.	.	.	.	-8	-7
CCCN(C(=O)c1cccc(S(=O)(=O)N2CCN(C)CC2)c1)c1c(N)n(Cc2ccccc2)c(=O)[nH]c1=O	6	4	.	-5	.	i	-1	-25
CC1(C)N=C(N)N=C(N)N1c1cccc(C(=O)O)c1	2	7	-2	-9	-10	i	4	-32
CCOC(=O)CCc1c(C)c2ccc(OCc3ccc([N+](=O)[O-])cc3)cc2oc1=O	2	1	-7	2	0	i	.	-27
NC(=O)COC(=O)C1CSC2(c3ccc(F)cc3)CCC(=O)N12 (stereo not given)	-4	-2	4	-10	-3	i	7	1
CCOc1ccc(CNC(=O)CCCC(=O)n2nc(C)c3ccccc32)cc1	0	0	-5	.	-2	i	4	17

5 structures from above, sorted by molecular weight, rising.
SMILES	MT1-MMP act inh	MT1-MMP act inh RFP	PABP FP inh	CSC inhib	eIF4H inh	Rce1 inh	HIV Env fusion	Yeast UUG start	others
CC1(C)N=C(N)N=C(N)N1c1cccc(C(=O)O)c1	2	7	-2	-9	-10	i	4	-32
CC(C)(CO)NC(=O)C12CC3CC(CC(Br)(C3)C1)C2	2	1	-11	-11	6	i	0	.
CCOc1ccc(CNC(=O)CCCC(=O)n2nc(C)c3ccccc32)cc1	0	0	-5	.	-2	i	4	17
Cc1cc(NC(=O)CSc2nnc(-c3ccco3)n2Cc2ccco2)no1	-1	0	2	3	-7	i	.	.
CC1=C(C(=O)N2CCCCCC2)CC(CC(=O)NCCc2ccccn2)C(=O)N1Cc1ccccc1 (stereo not given)	10	1	.	.	.	.	-8	-7

From PubChem

Not all compounds are listed. The share of hits here may be higher or lower than overall.
